Source: PubChem BioAssay (several laboratories)
VCAM-1 up imaging: enhancers of VCAM-1 display on endothelial cells, imaging, high-content imaging, pooled HUVEC, TNFa stimulus (AID 457). Pooled HUVEC, TNFa-induced VCAM-1 immunofluorescence imaging; hits of this screen are not shown here. actives 0.2% (n = 10,000). calls only;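 active = a top-ranked rise in VCAM-1 staining upheld on image or statistical review; inactive = the rest, including candidates rejected on review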;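 note: compounds tested at 5 µM in the well; cells exposed to compound for 24 hours before fixing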
VCAM-1 down imaging: inhibitors of TNFa-induced VCAM-1 surface display, imaging, high-content imaging, pooled HUVEC, TNFa stimulus (AID 456) | inhibition, % at 5 µM, or IC50 in µM where a hit was titrated | HUVEC TNFa-induced VCAM-1 surface expression, immunofluorescence imaging; numbers were filed only for top-ranked candidate wells | actives 0.2% (n = 10,000);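 active = top tenth filtered wells with inhibition above zero that passed visual or statistical confirmation; inactive = the rest, including hits rejected on review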;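 note: 0% = stimulated vehicle wells and 100% = unstimulated cells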
FPRL1 ligand: human FPRL1 ligands by binding competition, primary screen, cell-based, FPR counter-screen, flow cytometry. inhibition, %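 (tested at 6.7 µM)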. N-formyl peptide receptor 2 (Homo sapiens), P25090. actives 0.3% (n = 24,000). FPRL1-expressing cells, fluorescent ligand binding inhibition. AID 441, 2006;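 note: 0% = buffer alone and 100% = receptor blocker peptide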
Target sequence (P25090 whole entry, looked up): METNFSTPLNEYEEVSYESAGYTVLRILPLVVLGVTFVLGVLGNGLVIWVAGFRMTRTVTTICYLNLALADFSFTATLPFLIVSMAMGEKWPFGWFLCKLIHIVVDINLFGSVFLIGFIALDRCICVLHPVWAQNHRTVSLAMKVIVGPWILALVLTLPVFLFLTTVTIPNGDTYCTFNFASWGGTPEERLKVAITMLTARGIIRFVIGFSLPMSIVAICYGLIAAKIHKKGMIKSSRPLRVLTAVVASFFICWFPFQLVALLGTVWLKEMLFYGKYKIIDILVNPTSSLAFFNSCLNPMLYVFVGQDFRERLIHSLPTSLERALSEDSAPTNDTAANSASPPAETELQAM
VCAM-1 down: inhibitors of TNFa-induced VCAM-1 surface display, cell-based, plate reader, pooled HUVEC, TNFa stimulus (AID 454); actives 0.2% (n = 10,000); inhibition, % at 5 µM; HUVEC TNFa-induced VCAM-1 surface immunofluorescence, plate reader; numbers were filed only for top-ranked candidate wells;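 active = compound among top-ranked inhibitors of TNF-induced VCAM-1 adhesion protein staining, with the hit upheld by image or statistical review; inactive = the rest, including hits rejected on review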;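 note: 0% = TNFa with vehicle and 100% = cells without TNFa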
FPR binder: human FPR ligands by binding competition, primary screen, cell-based, FPRL1 counter-screen, flow cytometry; fMet-Leu-Phe receptor (Homo sapiens), P21462; FPR-expressing cells, fluorescent ligand binding; inhibition, %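 (tested at 6.7 µM)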; actives 0.74% (n = 24,000);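 note: 0% = buffer wells and 100% = receptor blocker peptide wells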
Target sequence (P21462 whole entry, looked up): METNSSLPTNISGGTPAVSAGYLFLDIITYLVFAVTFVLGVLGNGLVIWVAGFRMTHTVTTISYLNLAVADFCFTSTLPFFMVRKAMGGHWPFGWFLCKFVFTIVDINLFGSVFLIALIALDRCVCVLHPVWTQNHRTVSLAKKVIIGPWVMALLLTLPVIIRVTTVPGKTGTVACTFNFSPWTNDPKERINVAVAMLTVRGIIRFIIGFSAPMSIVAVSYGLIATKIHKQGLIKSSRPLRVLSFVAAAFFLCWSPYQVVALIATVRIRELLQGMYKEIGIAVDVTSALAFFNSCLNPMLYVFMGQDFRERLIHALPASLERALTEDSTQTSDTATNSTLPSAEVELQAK
* marks the source's active call; other numbers are inactive results; i = inactive; / = no result given.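 Rule for the calls, unless noted: active = mean above 30%; inconclusive = self-fluorescent; inactive = the rest.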 Only part of the results is shown, so the mix of outcomes need not match the whole.

Results follow in this order: FPRL1 ligand, VCAM-1 up imaging, VCAM-1 down imaging, FPR binder, VCAM-1 down
- COCCN1Cc2c(sc(C)c2C)N(C(=O)c2ccccc2)C1
    1, /, /, -6, /
- Cc1ccc(N(CC(=O)N2CCN(c3ccc(F)cc3)CC2)S(=O)(=O)c2c(C)nn(C)c2C)cc1
    3, /, /, -2, /
- Cc1nc2ccccc2c(=O)n1NC(=O)Nc1ccccc1
    2, i, i, 16, i
- O=C(NCc1ccco1)c1ccc2c(=O)n(CC3CCCO3)c(=S)[nH]c2c1 (stereo unspecified)
    -4, i, i, -2, i
- CS(=O)(=O)N1CCCC(C(=O)N2CCOCC2)C1 (stereo unspecified)
    2, i, i, -4, i
- N#CCCN1CCN(S(=O)(=O)c2ccc(S(=O)(=O)N3CCOCC3)cc2)CC1
    2, /, /, 0, /
- CCN1CCN(Cc2ccc(NC(=O)Nc3ccc(SC)cc3)cc2)CC1
    4, i, i, -4, i
- COC(=O)c1ccc(CSc2nc3c(c(=O)n2-c2ccc(F)cc2)SCC3)o1
    -2, /, /, 0, /
- COCCCN1C(=O)C(=O)/C(=C(/O)c2ccc(OC(C)C)cc2)C1c1cccnc1 (stereo unspecified)
    2, /, /, -3, /
- Cc1cc(=O)oc(C)c1C(=O)NCCC(C)C
    -4, /, /, -6, /
- CCCc1[nH]nc2c1C(c1ccc(Br)s1)C(C#N)=C(N)O2 (stereo unspecified)
    6, /, /, 13, /
- COC(=O)C(C)Oc1ccc2c3c(c(=O)oc2c1)CCCCC3 (stereo unspecified)
    0, i, i, 13, i
- COC(=O)c1cc(OC)c(OC)cc1NC(=O)c1ccc(Br)o1
    9, i, i, 3, i
- CCOc1cc2[nH]c(=O)n(CC3CCC(C(=O)NC4CCCCC4)CC3)c(=O)c2cc1OCC (stereo unspecified)
    -9, /, /, -1, /
- CCCCNC(=O)c1ccc2c(c1)N(CC)C(=O)CS2
    -5, /, /, 1, /
- COCCCN1Cc2cccc(C(=O)O)c2C1=O
    -7, /, /, 2, /
- CCS(=O)(=O)N1CCC(C(=O)NCCCOC)CC1
    7, /, /, 2, /
- COc1ccc(CCNc2nc(N3CCOCC3)nc(N3CCOCC3)n2)cc1OC
    -4, i, i, -7, i
- O=c1c2ccccc2nc2n1CCCCC2
    -1, /, /, -1, /
- CCOC(=O)c1ccccc1NC(=O)CSc1nnc(Cc2cccn2C)n1-c1ccc(C)cc1
    5, /, /, 12, /
- CCOc1ccc(N(CC)S(=O)(=O)c2ccc3c(c2)oc(=O)n3C)cc1
    -2, /, /, -4, /
- O=C(NC1CCCc2ccccc21)C1CCN(S(=O)(=O)c2cccc3nonc23)CC1 (stereo unspecified)
    -8, /, /, -4, /
- CCOC(=O)N1CCN(C(=O)CN(C)S(=O)(=O)c2ccc(OC)c(OC)c2)CC1
    1, i, i, -1, i
- Cc1nc2oc3c(NCc4ccccn4)ncnc3c2c2c1COC(C)(C)C2
    1, i, i, 0, i
- COC(=O)C1=C(C(=O)c2ccccc2)C(c2ccc(OC)c(OC)c2)Nc2nnnn21 (stereo unspecified)
    6, /, /, -8, /
- CCOC(=O)Nc1ccc(S(=O)(=O)N2CCOCC2)cc1
    -1, /, /, 3, /
- O=C(NC1CCCCC1)C1c2ccccc2C(=O)N1Cc1ccco1 (stereo unspecified)
    1, /, /, 19, /
- CCN(CC)S(=O)(=O)c1ccc2oc(C(=O)Nc3ccc(OC)cc3OC)c(C)c2c1
    -5, /, /, -2, /
- Cc1ccc(N(CC(=O)Nc2ccc(C)cn2)S(=O)(=O)c2c(C)nn(C)c2C)cc1
    7, /, /, -3, /
- Cc1ccc2c(c1)N(C(=O)CCC(=O)N1CCc3ccccc3C1)CCO2
    8, /, /, 1, /

Of the compounds above, 3 have an NH in an aromatic ring.
Results follow in this order: FPRL1 ligand, VCAM-1 up imaging, VCAM-1 down imaging, FPR binder, VCAM-1 down
- O=C(NCc1ccco1)c1ccc2c(=O)n(CC3CCCO3)c(=S)[nH]c2c1 (stereo unspecified)
    -4, i, i, -2, i
- CCCc1[nH]nc2c1C(c1ccc(Br)s1)C(C#N)=C(N)O2 (stereo unspecified)
    6, /, /, 13, /
- CCOc1cc2[nH]c(=O)n(CC3CCC(C(=O)NC4CCCCC4)CC3)c(=O)c2cc1OCC (stereo unspecified)
    -9, /, /, -1, /

Further results.
Results follow in this order: FPRL1 ligand, VCAM-1 up imaging, VCAM-1 down imaging, FPR binder, VCAM-1 down
- C=CCn1c(SCC(=O)Nc2ccc3c(c2)CCC3)nnc1-c1cccs1
    -20, /, /, 1, /
- CCOC(=O)N1CCC(N2Cc3cccc(C(=O)Nc4cc(F)ccc4F)c3C2=O)CC1
    -8, /, /, 2, /
- O=C(COC(=O)CCC(=O)c1cccs1)NCc1ccco1
    2, i, i, -1, i
- CCC(=O)Nc1ccc(F)c(Cl)c1
    -5, i, i, -1, i
- Cc1nc2c([nH]1)C1(CCN(Cc3ccccc3)CC1)C(C#N)=C(N)O2
    -3, /, /, -7, /
- O=C(NCc1cccs1)C1CCN(S(=O)(=O)c2ccc(Br)s2)CC1
    4, /, /, 5, /
- COCCCNC(=O)c1cn(C)c(=O)c2cc(OC)c(OC)cc12
    -10, /, /, -9, /
- CCOC(=O)C1CCN(C(=O)Cc2c(C(=O)O)n(C)c3ccccc23)CC1
    7, /, /, -4, /
- CCOCCCNC(=O)C1CCCN(S(=O)(=O)CC)C1 (stereo unspecified)
    0, i, i, 3, i
- Cc1c(C)c2c(C)[nH]nc2oc1=O
    -1, /, /, -4, /
- CN(C)c1ccc(-c2nc3n(n2)C(c2cccnc2)C2=C(CC(C)(C)CC2=O)N3)cc1 (stereo unspecified)
    -2, /, /, -9, /
- O=C(CC1Oc2ccccc2NC1=O)NC1CCCC1 (stereo unspecified)
    14, /, /, 0, /
- Cn1cc(C(=O)NCCN2CCN(c3ccccc3F)CC2)c2c3ccccc3n(C)c2c1=O
    8, /, /, 4, /
- CCOC(=O)c1[nH]c2c(c1C)C(=O)CC(c1ccc(N(C)C)cc1)C2 (stereo unspecified)
    -1, /, /, 9, /
- Cc1n[nH]c(C)c1S(=O)(=O)N1CCCC(C(=O)NCc2cccs2)C1 (stereo unspecified)
    -1, /, /, 2, /
- CCN(CCCNC(=O)C1CCN(S(=O)(=O)CC)CC1)c1ccccc1
    -3, /, /, -1, /
- CC1CCN(CCCNC(=O)c2cc3c(=O)n(C)c4ccccc4c3n2C)CC1
    4, /, /, -7, /
- CC(C)(C)NCC(O)c1cc(O)cc(O)c1 (stereo unspecified)
    -4, i, i, -7, i
- O=C(CSc1nnc(Cc2ccccc2)o1)N1CCc2ccccc21
    6, /, /, -8, /
- CCOC(=O)c1ccc(NC(=O)CSCc2ccco2)cc1
    -8, i, i, 1, i
- Cc1ccc(-c2ccc(=O)n(CCC(=O)NCc3ccccn3)n2)cc1
    -2, i, i, 2, i
- COc1cc(NC(=O)C2CCN(S(=O)(=O)c3cccnc3)CC2)cc(OC)c1OC
    2, /, /, -7, /
- CCCc1cc(=O)[nH]c(/N=C(\N)Nc2ccccc2)n1
    -3, i, i, -7, i
- O=C(CSc1nnc(CNC(=O)c2ccco2)o1)c1ccc(Cl)cc1
    7, /, /, -9, /
- COc1ccccc1N1CCN(S(=O)(=O)c2cnc[nH]2)CC1
    -8, /, /, -7, /
- COc1ccc(CNC(=O)CCc2c(C)nc3ncnn3c2C)cc1
    5, /, /, 13, /
- COc1ccc(C(CNC(=O)c2ccc(OCC3CCCO3)cc2)N2CCOCC2)cc1 (stereo unspecified)
    -4, i, i, -3, i
- O=C(O)CCC(=O)c1c[nH]c2ccccc12
    1, i, i, -6, i
- CCOC(=O)CCc1cccc2c1CCC2=O
    4, /, /, 3, /
- CCN(CC)S(=O)(=O)c1ccc2oc(C(=O)O)c(C)c2c1
    2, i, i, -5, i
- COc1ccc(-c2nc(CS(=O)CC(=O)NCc3cccnc3)c(C)o2)cc1OC (stereo unspecified)
    0, /, /, 7, /
- Cn1c(=O)cc(OCC(=O)NCCCN2CCN(Cc3ccccc3)CC2)c2ccccc21
    -4, i, i, -5, i
- COc1ccc(CC(CC(=O)O)C(=O)Nc2ccccc2)cc1 (stereo unspecified)
    -1, /, /, 3, /
- O=C(c1nnc(Cc2ccc(Cl)cc2)o1)N1CCc2ccccc2C1
    -5, /, /, 0, /
- CCOc1ccc2cc(C#N)c(SCC(=O)N3CCCC3)nc2c1
    4, i, i, 0, i
- CN(CC(=O)Nc1sccc1C#N)C1CCCCC1
    1, i, i, 0, i
- Cc1ccccc1NS(=O)(=O)c1ccc2[nH]cc(C(=O)NCCCN3CCOCC3)c(=O)c2c1
    -3, /, /, -12, /
- CC(C)CCNC(=O)C1CCN(c2nc3ccccc3o2)CC1
    3, /, /, 8, /
- c1ccc(-c2noc(CN3CCN(c4ccccc4)CC3)n2)cc1
    -1, /, /, -2, /
- Cc1ccc(-c2nc(CS(=O)CC(=O)NCCN3CCOCC3)c(C)o2)cc1 (stereo unspecified)
    -3, /, /, -3, /
- COCCNC(=O)c1c(N)n(/N=C/c2cccs2)c2nc3ccccc3nc12
    -4, i, i, -3, i
- COC(=O)c1ccc(OCC2c3cc(OC)c(OC)cc3CCN2C(=O)C2CC2)cc1 (stereo unspecified)
    -4, /, /, 0, /
- Cc1cccc2c1N(CC(=O)OC(C)C)C(=O)C2=O
    7, i, i, -5, i
- Cc1ccccc1-n1nc2c(c1NC(=O)c1cc3ccccc3oc1=O)CS(=O)(=O)C2
    -2, /, /, 4, /
- CCCCN(CC)C(=O)CSc1cc(=O)n(C)c2ccccc12
    -2, /, /, 4, /
- COc1ccc(N(C)C(=O)CCS(=O)(=O)c2cccc3nonc23)c(OC)c1
    -1, i, i, 1, i
- CCS(=O)(=O)N1CCCC(C(=O)NCCN2CCC(Cc3ccccc3)CC2)C1 (stereo unspecified)
    -2, /, /, -2, /
- COc1cc2[nH]c(=S)nc(NCC3CCCO3)c2cc1OC (stereo unspecified)
    -6, /, /, 0, /
- O=C(CC1Nc2ccccc2NC1=O)NCc1cccnc1 (stereo unspecified)
    4, /, /, -7, /
- COc1cccc(C2=NOC(C(=O)N3CCN(C(=O)c4ccco4)CC3)C2)c1 (stereo unspecified)
    0, /, /, -7, /

Further compounds follow:
Results follow in this order: FPRL1 ligand, VCAM-1 up imaging, VCAM-1 down imaging, FPR binder, VCAM-1 down
- O=C(CSc1oc(-c2ccccc2)nc1S(=O)(=O)c1ccc(F)cc1)NCC1CCCO1 (stereo unspecified)
    -6, /, /, 1, /
- Nn1c(SCC(=O)Nc2ccc(Oc3ccccc3)cc2)nnc1C1CC1
    3, i, i, 3, i
- Cc1ccc(CNC(=O)Cn2ccc3ccccc3c2=O)o1
    0, /, /, 0, /
- CSc1nc2ccccc2n1CC(=O)Nc1c(C)n(C)n(-c2ccccc2)c1=O
    -1, /, /, 4, /
- O=C(NCCCN1CCN(c2cccc(Cl)c2)CC1)C1CCC(=O)N1Cc1ccccc1Cl (stereo unspecified)
    2, /, /, -2, /
- CCOC(=O)/C=C1\SCC(=O)N1Cc1ccc(Br)cc1
    9, i, i, -5, i
- Cc1c(Cl)cccc1NC(=O)CN1C(=O)CSc2ncccc21
    0, /, /, 2, /
- Cc1ccc(CN2C(=O)CCC2C(=O)NC2CC2)cc1 (stereo unspecified)
    3, /, /, -10, /
- COC(=O)c1cc(S(=O)(=O)NC2CCN(Cc3ccccc3)CC2)cn1C
    -4, /, /, -4, /
- C=CCNC(=O)CNS(=O)(=O)c1ccc(F)cc1
    13, i, i, 16, i
- Cn1c(C(=O)NCc2cccs2)cc2c(=O)n(C)c3ccccc3c21
    4, /, /, -6, /
- CCCS(=O)(=O)N1CCC(C(=O)NCCCN(CC)c2cccc(C)c2)CC1
    9, /, /, -2, /
- CCOC(=O)c1ccc(N=c2sc(C(=O)OC)cc(=O)n2Cc2ccco2)cc1
    0, i, 4.9µM*, 3, 96*
- CCOC(=O)N1CCC(N2Cc3cccc(C(=O)N4CCN(C5CCCCC5)CC4)c3C2=O)CC1
    13, /, /, 12, /
- CCOC(=O)N1CCC(N2Cc3cccc(C(=O)NCC4CCN(CC(C)C)C4)c3C2=O)CC1 (stereo unspecified)
    2, /, /, -8, /
- Cn1c(=O)c2c(nc(Br)n2CCSc2ncccn2)n(C)c1=O
    -4, i, i, -6, i
- CC12CC(NC(=O)N1Cc1ccccc1)c1ccccc1O2 (stereo unspecified)
    5, /, /, 6, /
- CC1CN(C(=O)c2ccccc2)OC(c2ccc3c(c2)OCO3)O1 (stereo unspecified)
    -6, /, /, 4, /
